HIV Env fusion: blocks HIV Env-driven cell-cell fusion. hit rate 1.1% among 360,000. HeLa-JRFL Env/CEM21 cell fusion, luciferase. AID 651610. inhibition, % at 12.3 µM;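 active = mean replicate inhibition score of at least 50 and every replicate individually at or above 50; inconclusive = only one of the two criteria met; inactive = mean below 50 and not all replicates reaching 50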;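 note: 0% = plate neutral controls and 100% = maraviroc near 300 nM; one replicate is shown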
Rce1 inh: blocks yeast Ras-converting enzyme; Q03530; yeast membranes, quenched prenylated peptide cleavage fluorescence; calls only; hit rate 0.27% among 290,000; AID 2563;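 active = fall in fluorescence gain of 50% or more versus controls, with final raw signal at or below 3038400; inconclusive = same 50% fall but final raw signal above 3038400; inactive = fall in fluorescence gain under 50%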;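 note: plate controls were neutral control wells for no effect and wells lacking membranes for full effect; tested at 10 µM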
Target sequence (Q03530 whole entry, looked up): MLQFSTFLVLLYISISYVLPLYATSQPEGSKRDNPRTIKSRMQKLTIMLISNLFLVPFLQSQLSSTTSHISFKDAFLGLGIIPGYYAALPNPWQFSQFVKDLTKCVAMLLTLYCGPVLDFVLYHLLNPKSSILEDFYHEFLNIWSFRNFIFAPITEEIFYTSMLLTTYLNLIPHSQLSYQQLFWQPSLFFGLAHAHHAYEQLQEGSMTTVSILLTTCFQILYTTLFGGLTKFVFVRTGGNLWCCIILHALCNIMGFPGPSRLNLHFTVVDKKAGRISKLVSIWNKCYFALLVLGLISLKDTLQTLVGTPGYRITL
UUG fidelity: alters start codon recognition fidelity in yeast; S. cerevisiae UUG-firefly luciferase reporter, luminescence/redox ratio; hit rate 0.13% among 350,000; AID 602363; activity score, % at 18.7 µM;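 active = replicate mean at a twofold rise or more, about +100% in these data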;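 note: firefly luciferase made from a UUG start codon reports start codon fidelity; reporter light over untreated wells divided by growth signal over untreated wells; some hits fall short of that in this replicate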
PABP FP inh: blocks human PABP binding to poly(A) RNA | P11940 | fluorescence polarization | inhibition, % at 35 µM | hit rate 1% among 290,000;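 active = 50% or more with normal probe brightness, or confirmed in later tests; inconclusive = above 50% with abnormal brightness, or retests that disagree; inactive = below 50% or failed in later tests; about a fifth of its hits are not listed in these tables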;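 note: calls also rest on retests at 20 µM and on dose response follow-up; controls were probe without protein and protein plus probe with vehicle; some compounds called inactive have numbers as strong as hits; many hits fall short of the cut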
MT1-MMP act inh: blocks activation of human MT1-MMP; P50281; hit rate 0.061% among 360,000; GFP/RFP ratio change, % at 20 µM; HT1080 RFP-PRO-GFP cells, GFP/RFP ratio fluorescence, overnight; percent of plate control window, DMSO zero;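 active = GFP/RFP ratio change of at least 30% with cell ATP level not reduced by more than half and red fluorescence within 50% of control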; note: strong numbers were not always called active
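Assay system: HT1080 cells carrying an RFP-PRO-GFP reporter | Dosing: Single dose of 20 µM compound, 1% DMSO final | Incubation: Cells overnight before dosing, compound overnight, 37 °C, 5% CO2 | Evaluation: GFP/RFP fluorescence ratio | Control set: DMSO and RFP-L50D-GFP cell wells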
eIF4H inh: inhibitors of RNA binding by human eIF4H; Q15056; eIF4H fluorescence polarization binding assay; inhibition, % at 35 µM; AID 2012; hit rate 0.94% among 290,000;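 active = 50% or more with normal probe brightness, or confirmed in later tests; inconclusive = above 50% with abnormal brightness, or retests that disagree; inactive = below 50% or failed in later tests; about a fifth of its hits are not listed in these tables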;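 note: calls also rest on retests at 20 µM and on dose response follow-up; 0% = protein and probe with vehicle and 100% = probe without protein; strong numbers were not always called active; many hits fall short of the cut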
CSC inhib: blocks cancer stem cells. cancer stem cell-like cells viability, luminescence. inhibition, % at 7.5 µM. hit rate 1.1% among 300,000. AID 2717;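 active = mean at 75% or more and at least half the replicates too; inconclusive = mean and replicates disagree; tested in HMLE shEcad cells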;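 note: 0% = median of negative and 100% = median of positive control wells; the first replicate is given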
eIF4H inh retest: also measured in eIF4H inh; calls as there; inhibition, %; compound at 20 µM; confirmation average;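 mean of two retest wells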
PABP FP inh retest: further read-out of PABP FP inh, marked with its call; inhibition, %; compound at 20 µM; confirmation repeats;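 mean of two retest wells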
MT1-MMP act inh RFP: also measured in MT1-MMP act inh; calls as there; RFP signal change, %; measured here: RFP expression control read;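 0 = vehicle wells; hits needed this value within 50% of zero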
* marks the source's active call; other numbers are inactive results; i = inactive; ? = inconclusive; · = no result given.

SMILES | HIV Env fusion | Rce1 inh | UUG fidelity | PABP FP inh | MT1-MMP act inh | MT1-MMP act inh RFP | eIF4H inh | CSC inhib | others
Cc1ccc(CSc2nnc3c(n2)OC2(Nc4ccccc4-3)C(=O)Nc3ccc(F)cc32)cc1 (stereo unspecified) | · | i | -13 | 15 | -7 | 7 | 8 | -15
CN(c1ccccc1)S(=O)(=O)c1ccc(Cl)c(C(=O)Nc2ccncc2)c1 | 4 | · | 7 | · | 0 | -24 | · | -5
CCOC(=O)CNC(=O)c1cn(C)c(=O)c2cc(OC)c(OC)cc12 | -49 | i | -2 | -2 | 7 | 8 | -17 | -3
COc1ccc2c(c1)OC(O)(C(F)(F)C(F)F)CC2=O (stereo unspecified) | · | · | -8 | 1 | -2 | -4 | -13 | 15
Cc1ccc(NC(=O)CSc2cn[nH]n2)cc1 | -28 | i | -11 | 6 | 3 | 3 | -5 | 8
Cc1cccc(N/C(=N/S(=O)(=O)c2ccccc2)c2ccccc2)n1 | 14 | i | -21 | -3 | -10 | -2 | -5 | -10
Cc1ccccc1NC(=S)NC(=O)/C=C/c1ccco1 | 3 | i | -14 | 8 | -10 | 1 | 22 | -12
CCCC(C(=O)Nc1cc(S(=O)(=O)N2CCOCC2)ccc1OC)c1ccccc1 (stereo unspecified) | · | i | 2 | -4 | -3 | 2 | -9 | -3
COc1ccc(C(=O)OCC(=O)Nc2cc(C)on2)cc1F | 1 | · | -3 | · | 3 | 4 | · | ·
COc1ccc(-c2noc(C3CCCN(C(=O)c4ccc(F)cc4)C3)n2)cc1 (stereo unspecified) | 8 | i | -1 | 0 | 3 | -10 | 0 | -5
CCN(C(=O)CN1CCCCC1C)c1c(N)n(Cc2ccccc2)c(=O)[nH]c1=O (stereo unspecified) | -7 | · | -25 | · | -3 | 4 | · | -19
COc1ccccc1N1CCN(C2CCCN(C(=O)c3ccsc3)C2)CC1 (stereo unspecified) | 8 | i | -6 | 9 | 1 | 5 | 60 | -8 | eIF4H inh retest=8;PABP FP inh retest=5
O=C(NCC(=O)N(c1ccc2c(c1)OCCO2)C(C(=O)NC1CCCC1)c1ccco1)c1ccco1 (stereo unspecified) | · | i | -6 | 9 | 2 | 0 | -1 | 4
CCn1c(C)nc2cc(C(=O)N/N=C/c3ccc(O)c(O)c3O)ccc21 | 22 | i | · | ? | 2 | -3 | ? | ·
CC(=O)Nc1cc2nc(C)n(Cc3ccccc3[N+](=O)[O-])c2nc1C | -84 | i | -7 | 4 | 1 | 0 | 0 | -16
CCCCCCN1CCN(C2CN(Cc3ccccc3)S(=O)(=O)C2)CC1 (stereo unspecified) | 1 | · | -9 | · | 2 | 7 | · | ·
COCOCCn1cc(CN2CCS(=O)(=O)N(Cc3ccc(-c4ccc(Cl)nc4)cc3)C(C)C2=O)nn1 (stereo unspecified) | 26 | · | -10 | · | 4 | 0 | · | ·
O=C(COC(=O)/C=C/c1cccc(Br)c1)Nc1cccc(S(=O)(=O)NC2=NCCC2)c1 | 2 | · | 0 | · | 2 | 3 | · | ·
CC(C)CNC(=O)COc1ncnc2sccc12 | 9 | i | · | -5 | -1 | 0 | -4 | -12
COC(=O)c1ccc(COc2ccc(F)cc2)o1 | 0 | i | -6 | 0 | -3 | 2 | -2 | 3
O=C(COC(=O)c1cc(=O)[nH]c2ccccc12)NC(=O)c1ccccc1 | -14 | i | -2 | · | 5 | -1 | · | -1
CC(C)c1cccc(C(C)C)c1NC(=O)c1ccc(-c2cc(Cl)ccc2Cl)o1 | 15 | · | 3 | · | 0 | 4 | · | ·
CCCCNC(=O)C1(C)CCN1C(=O)c1sccc1C (stereo unspecified) | 3 | · | -16 | · | 7 | 11 | · | ·
CC(=O)Nc1ccc(S(=O)(=O)Nc2ccc(C(=O)NCC(=O)O)cc2)cc1 | 15 | i | 0 | 2 | -1 | 1 | 0 | -10
CCN1CCN(C(=O)Cn2ncc3c([nH]c4ccccc43)c2=O)CC1 | 10 | i | -18 | -10 | 1 | 2 | -9 | -13
CCOc1ccccc1NC(=O)CCCc1nc2ccccc2c(=O)[nH]1 | 8 | i | -27 | 5 | 5 | 1 | 13 | 17
COC(=O)COc1ccc(S(=O)(=O)NCCC2=CCCCC2)cc1 | · | i | -4 | 8 | -5 | 4 | 3 | -2
Cc1c(Cc2ccccc2)sc(NC(=O)/C=C/c2cccc3ccccc23)c1C(N)=O | -19 | i | -9 | 0 | -11 | -4 | -3 | 63
O=C(Nc1ccc(S(=O)(=O)N2CCCC2)cc1)c1ccc(CN2CCOCC2)cc1 | 74* | i | 3 | 8 | 4 | -13 | -10 | -5
Cn1c(=O)c2c(SCCN3CCOCC3)nc(C3CCCC3)nc2n(C)c1=O | -3 | i | · | 6 | 0 | -3 | -4 | -15
Cc1ccc(C(=O)C[n+]2cc(Br)cc(Br)c2)cc1 | 12 | i | -14 | 17 | 0 | 2 | 5 | -1
Cc1ccc(NC(=O)Nc2ccc3c(c2)nc(C)n3C)cc1C | · | i | · | -1 | · | · | 3 | -1
S=C(Nc1cccnc1)NC1CCCCCCC1 | -11 | i | -36 | 9 | 4 | 2 | 1 | -4
CC(C)Oc1ccc(S(=O)(=O)N2CCCCC2)cc1NC(=O)C1=COCCO1 | 34 | i | · | · | 3 | -1 | · | -7
COc1ccc(OC)c(S(=O)(=O)N2CCN(CC(O)COc3ccc(C#N)cc3)CC2)c1 (stereo unspecified) | 1 | · | -28 | -4 | 0 | -5 | -17 | -6
CN(CC(=O)OCC(=O)NCc1ccccc1)S(=O)(=O)c1ccc(Cl)cc1 | -17 | i | · | 10 | 3 | 4 | 9 | -7

Two records drawn at random from the list so far:
SMILES | HIV Env fusion | Rce1 inh | UUG fidelity | PABP FP inh | MT1-MMP act inh | MT1-MMP act inh RFP | eIF4H inh | CSC inhib | others
O=C(Nc1ccc(S(=O)(=O)N2CCCC2)cc1)c1ccc(CN2CCOCC2)cc1 | 74* | i | 3 | 8 | 4 | -13 | -10 | -5
S=C(Nc1cccnc1)NC1CCCCCCC1 | -11 | i | -36 | 9 | 4 | 2 | 1 | -4

Additional structures follow:
SMILES | HIV Env fusion | Rce1 inh | UUG fidelity | PABP FP inh | MT1-MMP act inh | MT1-MMP act inh RFP | eIF4H inh | CSC inhib | others
Cc1ccc(S(=O)(=O)N2CCOCC2)cc1C(=O)N1CCc2ccccc21 | -5 | · | -11 | · | -1 | 3 | · | -11
Cc1cc(C)nc(NC(=S)Nc2ccccc2)n1 | -19 | i | · | 8 | 0 | 4 | -5 | -21
Cn1nc(C2CC2)cc1NC(=O)CC(CC(=O)O)c1ccccc1 (stereo unspecified) | -1 | i | -13 | 12 | 0 | 0 | -2 | -10
COC(=O)C(Sc1nc(C)cc(C)c1C#N)c1ccccc1 (stereo unspecified) | · | i | -21 | 12 | 1 | -1 | -8 | -1
CCCCn1c(SCC(=O)Nc2ccc3c(c2)OCCO3)nnc1C(CC)N(C)C (stereo unspecified) | · | · | -5 | · | 2 | -2 | · | -7
Cn1[nH]c(C(F)(F)F)c(C=NCc2ccc(Cl)cc2)c1=O | 6 | i | -6 | -6 | 3 | 8 | -14 | 1
CC(=O)NCCOc1nc(N2CCCCC2)nc(N2CCCCC2)n1 | 18 | i | 7 | 25 | 5 | 3 | 6 | -1
CC1CCCCN1C(=O)CCC(=O)Nc1nnc(C(F)(F)F)s1 (stereo unspecified) | 2 | i | 10 | · | 3 | 3 | · | -10
CCC(Sc1nc2n[nH]c(C)c2c(=N)n1-c1cccc(Cl)c1)C(=O)NCCOC (stereo unspecified) | · | i | 1 | 3 | 0 | 0 | -18 | 7
CCSC1=C(C#N)C(c2cccs2)C(C(=O)OC)=C(C)N1 (stereo unspecified) | · | i | -14 | 3 | -4 | -1 | -2 | -6
CCc1nc2ccc(C(=O)NCCCn3ccnc3)cn2c1N(C)Cc1ccc(Cl)cc1 | 20 | · | -10 | · | 1 | 9 | · | ·
Cc1ccc(C2/C(=C(\O)c3c(C)nc4c(C)cccn34)C(=O)C(=O)N2CCN(C)C)o1 (stereo unspecified) | -4 | · | -12 | · | 3 | 3 | · | ·
Cc1ccc(NC(=O)Nc2ccccc2)c(Br)c1 | -101 | i | -12 | 15 | 2 | -5 | 4 | -10
Cc1nc2nc(SCc3ccccc3)nn2c(C)c1C | -8 | · | 0 | · | -2 | 3 | · | ·
COc1ccc2nc(NC(=O)c3ccccc3-c3ccccc3C(=O)O)sc2c1 | 28 | i | -19 | 1 | 2 | 0 | 0 | 7
O=C(CCCC1=NS(=O)(=O)c2ccccc2N1)Nc1ccccc1 | 16 | i | -16 | 3 | -1 | 1 | -3 | -2
O=C(O)COc1ccccc1/C=N/NC(=O)CSc1nnc(SCc2ccc(Cl)cc2)s1 | -2 | i | · | 2 | -4 | -1 | 8 | 6
O=C(NCc1cccnc1)c1cc(Sc2ccccc2Cl)nc2ccccc12 | 21 | i | -17 | 3 | 5 | -6 | -3 | 11
COc1ccc(-c2nnn(CC(=O)N(C3CCCC3)C(C)C(=O)NC3CCCC3)n2)cc1OC (stereo unspecified) | -41 | i | -1 | 5 | -4 | -9 | -8 | 0
C=CCOC(=O)C(=O)/C=C/c1csc2ccccc12 | 19 | i | -12 | 7 | -4 | 2 | 2 | -1
CC(=O)c1ccc(-n2c(-c3cc(-c4ccco4)[nH]n3)n[nH]c2=S)cc1 | · | i | -13 | 22 | -2 | 4 | 56 | -3 | eIF4H inh retest=2;PABP FP inh retest=4
Cc1cc(C(=O)CSC(C)c2nc3ccccc3c(=O)[nH]2)c(C)n1C (stereo unspecified) | -198 | i | -13 | 24 | -10 | -3 | 19 | -4
O=C(CCCn1c(SCC(=O)NC2CCCCC2)nc2ccccc2c1=O)NCC1CCCO1 (stereo unspecified) | -12 | i | -15 | -20 | 7 | 0 | -12 | -2
O=C(NCC(=O)N1CCN(S(=O)(=O)c2ccccc2C(F)(F)F)CC1)c1sc2ccccc2c1Cl | · | · | -17 | · | 11 | 1 | · | 10
CCOC(=O)N1CCN(c2ccc3nnnn3n2)CC1 | · | i | -8 | -3 | -2 | 6 | 1 | -7
CCOc1ccc(CC2S/C(=N/c3ccccn3)NC2=O)cc1 (stereo unspecified) | · | · | -5 | -5 | 5 | -3 | 1 | 1
CC(NC(=O)/C=C/c1ccccc1)c1ccccc1 (stereo unspecified) | 11 | i | -13 | -4 | 4 | 5 | -2 | ·
O=C(Nc1nnc(COc2ccc(Br)cc2)s1)c1ccco1 | 4 | i | -18 | 4 | -3 | -2 | 10 | 31
O=C(CCC(=O)N1CCOCC1)Nc1ccc(Cl)c(Cl)c1 | · | i | -4 | 28 | -3 | 3 | -6 | 5
CSc1nccc(N2CCN(c3ccc(F)cc3)CC2)n1 | 0 | i | 2 | -6 | 1 | -16 | -4 | -8
Cc1ccc(N(CC(=O)NC(C)C)C(=O)CCC(=O)Nc2nccs2)c(C)c1 | -21 | i | -4 | 10 | 7 | 4 | 7 | -7
CC(C)(C)c1cc(OS(C)(=O)=O)ccc1O | 4 | i | -7 | 0 | 3 | -3 | -6 | -12
CC(C)c1ccc(O)c(NC(=S)NC(=O)c2ccc3c(c2)OCO3)c1 | -18 | i | -22 | -2 | 3 | -3 | 4 | 22
CN(CC(=O)Nc1ccccc1N1CCOCC1)S(=O)(=O)c1ccc(F)cc1 | -67 | i | -13 | -6 | 7 | 2 | 6 | -13

Screening results deposited in PubChem BioAssay by several laboratories.
